# Screens (PubChem BioAssay)
# HTT prom inh – HTT promoter inhibition | HEK293 HTT promoter firefly luciferase reporter (activity 0% = vehicle and -100% = no light), 24 h | Potency, µM (series often up to 57.5 µM), for inactives: top-dose activity change, negative = inhibition, usual class: inhibitors | 48,000 compounds, 0.93% hits | AID 1508623; active means well fitted inhibition curve with a large enough effect; inconclusive means small, poorly fitted or top-dose-only effect; inactive means no such curve, though single readings can be large or run the other way; further: nearly all actives have a fitted effect of over 50% in size
#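 HEK293 cells carrying firefly luciferase reporters were seeded at 2,500 per well in Opti-MEM and cultured for 24 h. They were then treated with compounds at up to 57.5 uM final for 24 h at 37 degrees C before Dual-Glo luminescence readout.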
# PMP22 txn prim – modulators of PMP22 gene transcription in S16 Schwann cells; AID 1508649; Potency, µM (doses to about 57.5 µM), inactives show top-dose activity change, negative = inhibition, most hits filed as inhibitors; S16 Pmp22-F2sN Schwann cells (luciferase reporters placed in the Pmp22 gene), FLuc/NLuc coincidence luminescence, 24 h; 43,000 compounds, 2% hits; active = clear falling dose curves in both reporters; inconclusive = both reporters move, but less clearly or upward; inactive = either reporter flat; the % is the NLuc reporter signal; further: on the % scale 0 is the no-effect control and ±100 the full control effect; some results filed as inactive show a strong effect at the top dose
#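 Transcriptional readout in edited S16(c9) cells: two luciferases reported from the Pmp22 locus, measured in turn after 24 h compound incubation.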
# Starred values were filed as active, the others as inactive; u = inconclusive; x = not tested or not shown; & = joins results of further samples; [ ] = dose if it differs, or a comment. Potency means the concentration at half of the fitted maximal effect.
# Screens in order – HTT prom inh	PMP22 txn prim
Cc1ccccc1Nc1sc(C(=O)c2ccccc2)c(N)c1C(=O)NCc1ccc(Cl)cc1
  u	u
CCOC(=O)c1cc(S(=O)(=O)Nc2c(C)cc(C)cc2C)[nH]n1
  -11.6%	-19.3%
CCC(Cn1nnc2ccccc2c1=O)NC(=O)Nc1cccc(Cl)c1 (stereo unspecified)
  -14.3%	-0.6%
CCOC(=O)c1ccc(NC(=O)Cn2nc3c4ccccc4n(Cc4cccc(F)c4)cc-3c2=O)cc1
  -3.4%	u
CCOc1ccc(NC(=O)Cn2c(=O)oc3cc(S(=O)(=O)NC4CCCC4)ccc32)cc1
  u	-89.7%
Cc1ccccc1NC(=O)C1CCN(C(=O)c2ccc(F)cc2)CC1
  -9.8%	15.4%
O=C(Cn1ncc2c(=O)oc3ccccc3c21)N1CCN(c2ccc(Cl)cc2)CC1
  6.1%	u
COc1ccc(C(=O)Nc2ccc(-c3nc4cc(C)ccc4o3)c(O)c2)cc1
  1.2%	-9.0%
Cc1ccc2oc3c(c(=O)c2c1)C(c1ccccc1F)N(CCCN(C)C)C3=O (stereo unspecified)
  17.8%	-5.4%
COc1ccc(OC)c(C2CC(=O)c3c([nH]c(C(=O)OCC4CCCCC4)c3C)C2)c1 (stereo unspecified)
  -25.1%	-14.3%
CCOc1ccccc1OCCNC(C)Cc1ccc(OC)c(S(N)(=O)=O)c1 (stereo unspecified)
  0.8%	x
COc1ccccc1C(=O)Nc1ccc2nc(SCC(=O)N3CCCc4ccccc43)sc2c1
  u	u
CCOC(=O)N1CCN(S(=O)(=O)N2CCCC(C(=O)NCc3cccc(OC)c3)C2)CC1 (stereo unspecified)
  -27.2%	1.1%
COc1cccc(CNC(=O)CCCn2ncn3c(cc4occc43)c2=O)c1OC
  -10.9%	-0.7%
CCC(=O)N1CCCc2cc(S(=O)(=O)N3CCC(C(=O)Nc4ccc(F)c(F)c4)CC3)ccc21
  u	u
CCCCN(C(=O)Nc1ccc(OCC)cc1)C1CCN(C(C)=O)CC1
  4.6%	-6.0%
COc1cc(NC(=O)c2ncn(-c3ccccc3)n2)cc(OC)c1
  54.6%[activator]	u
CCOC(=O)c1ccc(NS(=O)(=O)c2cn(C)c(C)n2)cc1
  -13.2%	-7.2%
Cc1ccccc1C1C=C(c2ccc(Cl)cc2)Nc2nnnn21 (stereo unspecified)
  -28.5%	-11.8%
O=C(CSc1nc2ccccc2c(=O)n1CCC(=O)NC1CCCCC1)Nc1ccccc1Cl
  -5.4%	1.4%
Cc1c(C(=O)Nc2cccc(-c3nc4ccccc4s3)c2)oc2ccccc12
  24.2%	3.0%
CCN(C(=O)c1cc2c(=O)n3cccc(C)c3nc2s1)c1ccc(C)c(C)c1
  -4.3%	-22.0%
Cc1cccc(C(=O)Nc2sc3c(c2C(=O)Nc2ccccc2)CCC3)c1
  -8.4%	9.6%
Cc1ccc(NC(=O)Cn2nc(C(F)(F)F)c3c2CCC3)cc1C
  -28.7%	u
Cc1c(NC(=O)Nc2ccc(Cl)c(C(F)(F)F)c2)c(=O)n(-c2ccccc2)n1C
  -17.6%	49.2%
Cc1nn2c(=O)cc(COC(=O)c3ccc(NC(=O)COc4ccc(C)c(C)c4)cc3)nc2s1
  -11.0%	4.3%
COc1ccc(CNC(=O)c2ccc(CS(=O)(=O)c3ccccc3OC)o2)cc1
  -12.6%	3.6%
Nc1nc(OCc2ccccc2)c2[nH]cnc2n1
  2.0%	x
CC(C)CC(=O)Nc1ccc2nc(SCC(=O)N3CCCC3)sc2c1
  3.7%	-7.1%
COc1cc(C2N=C(N)Nc3nc4ccccc4n32)ccc1OCC(=O)O (stereo unspecified)
  12.8%	1.9%

# Given as labelled records: entries from further up
SMILES: CCOC(=O)c1cc(S(=O)(=O)Nc2c(C)cc(C)cc2C)[nH]n1
  HTT prom inh = -11.6%
  PMP22 txn prim = -19.3%

SMILES: CCC(Cn1nnc2ccccc2c1=O)NC(=O)Nc1cccc(Cl)c1 (stereo unspecified)
  HTT prom inh = -14.3%
  PMP22 txn prim = -0.6%

SMILES: CCOC(=O)c1ccc(NC(=O)Cn2nc3c4ccccc4n(Cc4cccc(F)c4)cc-3c2=O)cc1
  HTT prom inh = -3.4%
  PMP22 txn prim = u

SMILES: CCOc1ccc(NC(=O)Cn2c(=O)oc3cc(S(=O)(=O)NC4CCCC4)ccc32)cc1
  HTT prom inh = u
  PMP22 txn prim = -89.7%

# The list continues.
# Screens in order – HTT prom inh	PMP22 txn prim
CCC(C)NC(=O)C1CCN(C(=O)c2ccc(-n3ccc4ccccc43)s2)CC1 (stereo unspecified)
  -0.6%	-10.8%
CCOC(=O)Cn1c(=O)n(CC2CCCO2)c2nc(-c3ccccc3OC)nc(C(N)=O)c21 (stereo unspecified)
  1.9%	-14.1%
Cc1cccc(CCNC(=O)C2CCN(c3ncnc4c3nc3n4CCCCC3)CC2)c1
  7.3%	-7.2%
CCOc1ccc2ccccc2c1C(=O)N[C@@H]1C(=O)N2[C@@H]1SC(C)(C)[C@@H]2C(=O)O
  11.6%	x
CCN(C(=O)Cn1c(=O)oc2cc(S(=O)(=O)N3CCCC3)ccc21)c1cccc(C)c1
  -23.2%	-2.0%
CCN(C(=O)c1cc2c(=O)oc3ccc(C)cc3c2s1)c1cc(OC)ccc1OC
  -33.7%	u
COc1ccccc1CNc1nc(-c2ccco2)nn1S(=O)(=O)c1ccc2ccccc2c1
  -6.5%	-8.8%
COc1cccc(NC(=O)c2oc3ccc(S(=O)(=O)N4CCCCCC4)cc3c2C)c1
  u	u
Cc1cn2c(=O)cc(COC(=O)c3cccc(NC(=O)COc4ccccc4)c3)nc2s1
  u	-11.5%
COc1cc(NC(=O)Cn2cnc3sc(C)c(S(=O)(=O)N4CCC(C)CC4)c3c2=O)cc(OC)c1OC
  -0.6%	-11.3%
CC(C)CC(NS(=O)(=O)c1ccc2c(c1)oc(=O)n2C)C(=O)NCCc1ccc(Cl)cc1 (stereo unspecified)
  -7.0%	-32.4%
O=C(NCc1cccc(Cl)c1)c1c2c(nc3ccccc13)C(=O)N(C1CCCCC1)C2
  -10.6%	u
CN1C(=O)C2(c3ccccc31)N(c1ccc(Br)cc1)C(=O)CS2(=O)=O (stereo unspecified)
  -17.6%	-25.0%
Cc1cc(C)c(S(=O)(=O)Nc2ccc3oc4c(c3c2)CCCC4)cc1C
  -31.5%	u
Cc1cccc(C)c1NC(=O)CN1CCN(CCCC(c2ccc(F)cc2)c2ccc(F)cc2)CC1
  u	x
CCOc1ccc(NC(=O)C(=O)NCCc2csc(-c3ccc(C)cc3)n2)cc1
  7.0%	-9.3%
Cc1nn(C(=O)c2cccc([N+](=O)[O-])c2C)c(C)c1S(=O)(=O)N1CCOCC1
  -8.9%	u
Cc1ccc2[nH]c3c(=O)n(CC(=O)NCCc4ccc(Cl)cc4)ncc3c2c1
  7.2%	-6.6%
CCOc1ccc(-n2c(C)nc3cc(C(=O)NCCC4=CCCCC4)ccc32)cc1
  5.3%	-7.4%
CC(=O)c1ccc(NC(=O)CCc2c(C)nn(-c3ccc4nncn4n3)c2C)cc1
  -9.4%	6.6%
CCCCOc1ccc(C(=O)Nc2ccc(F)cc2F)cc1
  -14.1%	x
CCc1cccc2c3c([nH]c12)C(CC)(CC(=O)O)OCC3 (stereo unspecified)
  -1.7%&8.4%	x
COc1ccccc1CNC(=O)CCCc1nnc2n(CC(C)C)c(=O)c3sccc3n12
  -20.2%	-15.6%
Cc1nnc(NC(=O)CSc2nccn2-c2cccc(Cl)c2)s1
  -26.1%	11.3%
COc1ccc(C)c2sc(NC(=O)c3ccc(S(=O)(=O)N(C)C)cc3)nc12
  1.6%	-6.5%
O=C(Cn1ccn(-c2ccc(F)cc2)c(=O)c1=O)Nc1ccc(F)cc1
  -6.4%	-4.0%
O=C(NC1CCCC1)c1ccc2c(c1)N(Cc1ccc(F)cc1)C(=O)c1ccccc1S2
  -11.8%	-21.5%
Cc1ccc(Cn2c(=O)c3cccnc3n(Cc3ccc(F)cc3)c2=O)cc1
  -25.8%	-22.2%
COc1ccc(C)cc1NC(=O)N(Cc1ccc(C)o1)C1CCN(C(C)=O)CC1
  -8.7%	-11.3%
CCOc1ccc(NCc2cccn2-c2nnc(N3CCC(C(=O)NCC(C)c4ccccc4)CC3)s2)cc1 (stereo unspecified)
  u	u

# Next part:
# Screens in order – HTT prom inh	PMP22 txn prim
COc1ccc(CNC(=O)c2ccc(CNS(=O)(=O)c3ccc(F)cc3)cc2)cc1
  -0.4%	-10.3%
Cc1c(C(=O)N(C)C)sc2c1c(=O)n(-c1ccc(Cl)c(Cl)c1)c(=O)n2Cc1ccc(F)cc1
  2.6%	-52.3%
CCOc1ccc(N2CC(NC(=O)c3ccco3)CC2=O)cc1 (stereo unspecified)
  6.2%	10.2%
CCC(C(=O)NCc1ccccc1Cl)n1nc(C)c2sc3ccccc3c2c1=O (stereo unspecified)
  -2.3%	2.6%
CCc1cccc(NC(=O)Cn2c(=O)n(-c3cccc(Cl)c3)c(=O)c3c2c2cc(C)ccc2n3C)c1
  -10.0%	0.2%
CCCOc1ccc(CN(C(=O)c2nc(SC(C)C)ncc2Cl)C2CCS(=O)(=O)C2)cc1 (stereo unspecified)
  -18.2%	-7.3%
Cc1ccccc1CNC(=O)C1CCN(c2nnc(C)c3c(C)n(-c4ccccc4)nc23)CC1
  4.8%	u
Cc1ccc(OCCSc2nc3ccccc3n2CC(=O)N2CCCCC2)cc1C
  -15.4%	u
O=[N+]([O-])c1cc(-c2nc(-c3ccccn3)no2)ccc1NCc1ccccc1
  33.4%[activator]	-27.1%
Cc1c(Cl)cccc1-n1ncc(C(=O)Nc2ccc(Br)cc2F)c1C1CCNCC1
  -6.3%	u
CCc1cccc(NC(=O)CCNS(=O)(=O)c2ccc3c(c2)CCN3C(C)=O)c1
  -24.6%	-22.5%
Cc1ccc(S(=O)(=O)C(CNC(=O)c2ccc(F)c(F)c2)c2ccco2)cc1 (stereo unspecified)
  -26.1%	4.8%
C[C@]12CCC(=O)C=C1[C@@H]1C[C@@H]1[C@H]1[C@@H]3[C@@H]4C[C@@H]4[C@@]4(CCC(=O)O4)[C@@]3(C)CC[C@@H]12
  -17.7%	x
CCCn1c(=N)c(C(=O)NCc2cccnc2)cc2c(=O)n3cccc(C)c3nc21
  -1.0%	u
O=C(Cn1c(SCc2ccccc2F)nc2cccnc21)Nc1ccc(F)c(Cl)c1
  u	u
O=C(CSc1nc2ncccc2o1)Nc1ccc(Cl)cc1F
  38.5%[activator]	u
O=C(Nc1ccc(Cl)c(C(F)(F)F)c1)c1nc2ccccc2nc1N1CCCCC1
  u	u
CCOCCc1nn2c(=O)cc(COC(=O)C(CC)c3ccccc3)nc2s1 (stereo unspecified)
  -17.8%	-17.4%
CCC(Cn1nnc2ccccc2c1=O)NC(=O)Nc1cc(OC)cc(OC)c1 (stereo unspecified)
  -4.7%	10.7%
COc1ccccc1CNC(=O)CCC(=O)N1CC(C)Sc2ccccc21 (stereo unspecified)
  -34.8%	-11.0%
Cc1nc2ccn(Cc3ccccc3)c(=O)c2cc1C(=O)NCc1ccccc1F
  u	-11.5%
COc1cc(CN2CCN(S(=O)(=O)c3ccccc3)CC2)cc(OC)c1O
  6.1%	5.0%
COc1ccccc1Nc1nc(-c2ccccc2F)nc2ccccc12
  u	u
Cc1nn(C(=O)c2ccc(Cl)cc2)c(C)c1S(=O)(=O)N1CCOCC1
  -6.1%	4.3%
COc1ccc(C(=O)NCCc2sc(-c3ccc(F)cc3)nc2C)cc1OC
  u	u
COc1cccc(N2CC(NC(=O)c3cc4ccccc4o3)CC2=O)c1 (stereo unspecified)
  -23.3%	u
Clc1ccc2c(N3CCN(CCCN4CCN(c5ccnc6cc(Cl)ccc56)CC4)CC3)ccnc2c1
  34.7%[activator][25.2 µM]	x
CCCn1c(SCc2nc(-c3ccccc3C)no2)nnc1-c1ccc(Cl)cc1
  -28.7%	u
CCC1Oc2ccccc2N(CC(=O)NCc2ccc(C)cc2)C1=O (stereo unspecified)
  24.4%	5.7%
Cc1c(-c2nc(-c3ccccc3F)no2)nnn1-c1cc(F)ccc1F
  -53.7%	u

# (list continues)
# Screens in order – HTT prom inh	PMP22 txn prim
CC(C)OCCCNC(=O)CN1C(=O)CSc2ccc(S(=O)(=O)N3CCCCC3)cc21
  -10.3%	-31.8%
Cc1ccc(N2CC3=C(C2=O)C(c2ccc(Br)cc2)NC(=O)N3C)cc1 (stereo unspecified)
  5.0%	1.5%
Cc1nn(C)c(C)c1S(=O)(=O)N(CC(=O)NCCc1ccccc1)c1ccc(C(C)C)cc1
  2.8%	-0.5%
Cc1ccc(NC(=O)CSc2nc3c(oc4ccccc43)c(=O)n2-c2ccc(F)cc2)c(C)c1
  -26.1%	-21.0%
COc1cccc(-c2nn(C)c3sc(C(=O)NCCc4cccc(C)c4)cc23)c1
  u	u
COc1ccc(N2CCN(C(=O)Cn3cnc4nc5c(cc4c3=O)CCCC5)CC2)cc1
  -14.8%	-8.7%
Cc1ccc(Cn2c(CNS(=O)(=O)c3ccc(Cl)s3)nc3cccnc32)cc1
  -2.1%	-46.7%
CC(=O)[C@@]1(O)CC[C@H]2[C@@H]3C[C@H](C)C4=CC(=O)C=C[C@]4(C)[C@@]3(F)[C@@H](O)C[C@@]21C
  7.7%	x
CCOc1ccc(NS(=O)(=O)c2cc(Br)cc3c2N(C(=O)C2CC2)CC3)cc1
  -22.2%	-5.8%
